# Screening results (PubChem)
# Rango release inh: inhibitors of RanGTP-induced Rango-importin beta complex dissociation | O95149+P62826 | Biochemical FRET Rango-importin beta, RanGTP-induced dissociation | Potency, µM (highest dose often 46.1 µM), for inactives: at the top dose activity change, negative = inhibition | 340,000 compounds, 0.071% hits | AID 540253; active means falling FRET ratio curve, often poorly fitted, with flat reads before Ran was added; inconclusive means other falling curves, or compound fluorescence or quenching; inactive means flat or rising ratio curve;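 further: potency means the concentration at half of the fitted maximal effect; % of control where 0% means no effect; nearly all actives have a fitted effect of over 45% in size; -100% = wells without RanGTP and RCC1; the record marks most hits as doubtful in a second field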
#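 Compounds sat 5 min at room temperature with 0.1 uM Rango biosensor plus 0.25 uM importin beta, then FRET pre-read. RanGTP-RCC1 (0.6 uM Ran, 2mM GTP, 0.2 uM RCC1) added for 45 min, and the CFP/YFP post-read measured blocked complex dissociation.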
# GLA inh pH 4.5: alpha-galactosidase A (human) inhibition, pH 4.5 | purified enzyme, 4-MU-alpha-Gal fluorescence, pH 4.5 | activity change, negative = inhibition, % at 105 µM | 230,000 tested, under 10 active; inconclusive = small, poorly fitted or top-dose-only inhibition, or a rising curve; inactive = flat fitted curve, though single readings scatter; no compound was filed as active;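 further: 0% = full activity with enzyme and -100% = basal without enzyme; dose as in the result columns while the protocol names 77 µM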
# Target sequence (P06280 whole entry, looked up): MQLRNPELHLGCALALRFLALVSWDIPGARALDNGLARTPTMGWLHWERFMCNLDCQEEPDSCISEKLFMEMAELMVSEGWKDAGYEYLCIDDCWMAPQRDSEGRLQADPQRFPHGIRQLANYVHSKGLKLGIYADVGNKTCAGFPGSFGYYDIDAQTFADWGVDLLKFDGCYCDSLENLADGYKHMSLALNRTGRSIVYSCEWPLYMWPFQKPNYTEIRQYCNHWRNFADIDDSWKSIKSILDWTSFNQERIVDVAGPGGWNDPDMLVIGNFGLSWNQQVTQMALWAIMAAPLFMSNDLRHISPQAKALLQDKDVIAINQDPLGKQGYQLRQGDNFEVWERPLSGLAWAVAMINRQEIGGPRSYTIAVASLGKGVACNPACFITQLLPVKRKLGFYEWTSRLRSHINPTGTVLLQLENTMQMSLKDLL
# miR-21 reporter: raises the signal of a miR-21 reporter; 340,000 tested, under 10 active; HeLa miR-21 FLuc reporter, luciferase, 48 h; Potency, µM (series often up to 38.3 µM), inactives show top-dose reporter change, positive = more light; active = well fitted rising curve with a large enough effect; inconclusive = small, poorly fitted or top-dose-only effect; inactive = no such curve, though single readings can be large or run the other way;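 further: % of control where 0% means no effect; miR-21 action dims this reporter so a rising signal means less miR-21 action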
#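 HeLa cells endogenously expressing miR-21, stably carrying CMV-driven firefly luciferase with a downstream miR-21 binding site, 2000 cells/well. Titrations up to approximately 40 uM, 48 hours; luciferase luminescence read.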
# Rango-impB inh: Rango-importin beta binding inhibition; Q14974; Potency, µM (titrated, usually from 92.2 µM), inactives show top-dose inhibition of complex formation; 340,000 compounds, 0.031% hits; AID 540263; Rango CFP/YFP FRET sensor + importin beta, 45 min; active = rising FRET ratio curve, often small or poorly fitted; inconclusive = mostly compound fluorescence or quenching in the first reads; inactive = flat curves in all reads;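 further: potency means the concentration at half of the fitted maximal effect; 0% = DMSO wells and 100% = buffer wells lacking importin beta; nearly all actives have a fitted effect of over 15% in size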
#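 FRET biosensor (snurportin 1 IBB flanked by EYFP and cerulean), 50 nM, with compound 5 min, then 0.125 microM importin beta in PBS, 1 mM DTT, 0.02% Tween-20, 0.1% BSA. CFP/YFP ratio read after 45 min at room temperature; pre-read flags interference.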
# * hit, by the source's call; ? = inconclusive; . = no result given; & = joins results of further samples; [ ] = remark or other dose. Only part of the results is shown; count on the stated rates, not on these rows.
SMILES | Rango release inh | GLA inh pH 4.5 | miR-21 reporter | Rango-impB inh
CCCCn1c(N)c(N(CCC(C)C)C(=O)COC(=O)c2cccnc2OCC)c(=O)[nH]c1=O | -11% | . | . | -4.6%
CCN(CC)S(=O)(=O)c1ccc(C(=O)N2CCc3ccccc32)cc1 | 1% | -5 | 1% | 2.0%
CC1CC(C)CN(C(=O)c2nn(C)c3c2CSc2ccccc2-3)C1 (configuration not stated) | -18% | . | 5% | 1.3%
O=C(CSc1nnc(-c2ccccn2)o1)Nc1ccc(F)cc1 | -1% | . | -49% | -0.5%
CC1CCN(c2ccc3nnc(CCC(=O)NC(C)C)n3n2)CC1 | -6% | . | -5% | -1.0%
c1ccc(CCn2cccc2)nc1 | -9% | . | . | 3.4%
O=C(NNC1=NCCN1Cc1ccccc1)c1cccc(C(F)(F)F)c1 | 0% | -3 | 0% | -2.2%
CCC(C)c1ccc(NC(=O)C/C(C)=N/NC(=O)c2cnccn2)cc1 (configuration not stated) | ? | 0 | -45% | ?
CCc1cc(=O)oc2c(C)c(O)c(CN(C)C)cc12 | ? | ? | 3% | ?
Cn1nccc1C(=O)Nc1cccc(C(F)(F)F)c1 | 8% | 4 | -10% | 0.6%
CCOc1ccc(C=NNC(=O)c2ccc(-n3cnnn3)cc2)cc1 | 14% | . | . | 4.4%
CCOC(=O)c1cc(C(=O)OCC)c(=O)[nH]c1N1CCCC1 | 0% | 13 | -1% | 1.1%
O=C(O)COc1ccc(/C=N/NC(=O)c2cn(-c3ccccc3)nc2-c2ccccc2)cc1 | 5% | . | 0% | 0.9%
O=C(NCC1CC1)Nc1ccccc1F | 4% | . | -19% | 3.0%
Clc1cccc(CSc2ncn(-c3ccccc3)n2)c1 | 18% | -3 | -66% | 2.4%
CC1(C)CCC(=NNC(N)=S)CC1 | 1% | . | . | 0.1%
CN(C)c1ccc(/C=N/N(Cc2ccccc2)c2ccccc2)cc1 | -12% | 3 | -11% | 0.2%
CCOC(=O)/C(=C\c1ccc([N+](=O)[O-])o1)NC(=O)c1ccccc1 | -12% | -5 | 4% | -3.9%
COc1ccc(C(=O)N(C)Cc2ccccn2)cc1OC1CCN(C(C)C)CC1 | -1% | . | -5% | 2.4%
Cc1nc(CNC(=O)CC2C(=O)NCCN2Cc2cccc(Oc3ccccc3)c2)cs1 (configuration not stated) | -4% | -2 | -1% | 0.3%
CC1(C)CC(=O)C2=C(C1)OC(N)=C(C#N)C2c1cccc(OC(=O)c2ccco2)c1 (configuration not stated) | -1% | -1 | 1% | -1.5%
CCCC(=O)OCC(=O)NC1CCCc2ccccc21 (configuration not stated) | 10% | 7 | 2% | 1.8%
Nc1ccc(CCNc2ncnc3c2ncn3[C@@H]2O[C@H](CO)[C@@H](O)[C@H]2O)cc1 | -8% | . | . | -5.2%
CCO[C@@H]1OC(C(=O)NC2CC2)=C[C@H](c2c[nH]c3ccccc23)[C@H]1CCCO | -21% | 4 | 8% | -0.2%
CC(C)Cc1nnc(NC(=O)CCC(=O)Nc2ccccc2F)s1 | 14% | 3 | 0% | -0.5%
O=C(Nc1cccc(F)c1)c1cc(S(=O)(=O)N2CCC3(CC2)OCCO3)ccc1F | . | 2[21.1 µM] | 11% | .
O=C(/C=C/c1ccc2ccccc2n1)c1cc(Br)ccc1O | ? | 0 | -56% | ?
CCc1ccccc1NC(=S)NCCSc1ccc(Cl)cc1 | 2% | -13 | 17% | -2.2%
NC(=O)CC(NC(=O)Cc1cccc2ccccc12)c1ccc(N2CCN(c3ccccc3)CC2)c([N+](=O)[O-])c1 (configuration not stated) | 0% | 9 | 2% | -1.1%
C=C(C)COc1ccc(-c2[nH]ncc2-c2ccccc2)c(O)c1 | -3% | -20 | 5% | 1.8%
O=C(c1ccccc1Br)N1CCN(c2ccc([N+](=O)[O-])c(N3CCOCC3)c2)CC1 | -5% | -7 | 4% | 6.1%
Cc1ccc(C)c(OCC(=O)Nc2ccc(S(=O)(=O)Nc3ccccn3)cc2)c1C | 5% | 8 | -9% | -0.6%
CC(=O)Nc1ccc(NC(=O)CSc2ncnc3c2cnn3Cc2ccccc2)cc1 | 0% | -12 | 9% | -3.4%
O=C(N/C(=C\c1cccc([N+](=O)[O-])c1)C(=O)N1CCOCC1)c1cccc(Br)c1 | -5% | . | -1% | 2.0%
CCCOc1ccc(C(O)C(CN2CCOCC2)c2ccccc2)cc1 (configuration not stated) | 3% | -7 | -9% | 0.5%
C=CCN1C(=O)C(Cc2ccc(C)cc2)S/C1=N/N=C/c1ccco1 (configuration not stated) | 23% | -6 | -2% | -3.6%

# Part of the list above in order of number of heavy atoms, rising.
SMILES | Rango release inh | GLA inh pH 4.5 | miR-21 reporter | Rango-impB inh
O=C(/C=C/c1ccc2ccccc2n1)c1cc(Br)ccc1O | ? | 0 | -56% | ?
CC(C)Cc1nnc(NC(=O)CCC(=O)Nc2ccccc2F)s1 | 14% | 3 | 0% | -0.5%
C=CCN1C(=O)C(Cc2ccc(C)cc2)S/C1=N/N=C/c1ccco1 (configuration not stated) | 23% | -6 | -2% | -3.6%

# The listing continues:
SMILES | Rango release inh | GLA inh pH 4.5 | miR-21 reporter | Rango-impB inh
N#Cc1ccc(NC(=O)CNc2cc(S(=O)(=O)N3CCOCC3)ccc2NCC2CCCO2)cc1 (configuration not stated) | -20% | -4 | -2% | 2.2%
O=C(CSc1nnc(CNC(=O)c2ccco2)o1)Nc1cccc(F)c1 | 15% | . | 0% | 0.3%
O=C(CCS(=O)(=O)c1ccccc1)Nc1ccc(-c2nc3ccccc3s2)c(O)c1 | -24% | 1 | -57% | ?
O=C(Nc1ccc(S(=O)(=O)Nc2ncccn2)cc1)C(F)(F)F | 1% | . | 1% | -3.5%
O=C1CSC(=Nc2cccc(Cl)c2Cl)N1 | -7% | . | -6% | 2.9%
Cc1ccnc(NC(=O)CCN2C(=O)c3ccccc3S2(=O)=O)n1 | -3% | . | . | 0.1%
Cc1ccccc1-n1c(=O)c2ccccc2n2c(=O)[nH]nc12 | 3% | -3 | -27% | -1.0%
Cc1ccc(NC(=O)CCn2c(=O)c3cccn3c3ccccc32)c(C)c1 | 2% | . | -7% | -0.5%
CC(=O)Nc1ccc(NS(=O)(=O)Cc2ccccc2)cc1 | -2% | -1 | -3% | 1.8%
COc1ccc(C2(NC(C)=O)CCN(C(=O)c3ccco3)CC2)cc1 | -18% | 3 | -1% | -0.6%
CC1CC2(C)Oc3ccccc3C3OCC1(CO)C(C)C32 (configuration not stated) | -3% | 3 | -7% | ?
COc1ccc(C)cc1NC(=O)COCC(=O)O | -7% | 3 | -4% | 0.3%
O=C(c1ccccc1Cl)N(Cc1ccc(Cl)c(Cl)c1)N1C(=O)CCCC1=O | -20% | -5 | -1% | 6.5%
COc1ccc(C)cc1NC(=O)c1nn(C)c(C(=O)Nc2cc(C)ccc2OC)c1[N+](=O)[O-] | 7% | . | -1% | -1.4%
CC(C)(C)C(=O)Nc1cc(S(=O)(=O)Nc2ccc(Cl)cc2)ccc1O | 0% | -3 | 2% | -0.4%
Cc1nn(C)c(C)c1S(=O)(=O)N1CCCC(C(=O)NCCc2ccc(Cl)cc2)C1 (configuration not stated) | -4% | 3 | -1% | -2.1%
CCCCN(C(=O)c1c(C)noc1C)c1c(N)n(CCC)c(=O)[nH]c1=O | 16% | . | . | 2.1%
Cc1nc2sc(C(c3cccs3)N3CCOCC3)c(O)n2n1 (configuration not stated) | 1% | 2 | -8% | -0.7%
CCCCS(=O)CC(COC)OC(=O)c1ccccc1 (configuration not stated) | -1% | -6 | -1% | ?
O=C(N/N=C/c1cc(Br)cc([N+](=O)[O-])c1O)c1ccc(NC(=O)c2ccc(F)cc2)cc1 | 7% | . | 6% | 0.4%
CSc1ccccc1NS(=O)(=O)c1ccccc1 | -6% | 0 | -3% | 0.1%
Cc1cc(Cl)ccc1OCC(=O)Nc1nc(-c2cccs2)cs1 | -6% | 2 | -11% | -1.7%
CN(Cc1ccccc1)C(=O)CN(C1CCCCC1)S(C)(=O)=O | 10% | 6 | -4% | 3.4%
CCc1ccc(C2=CSC3=NCCN23)cc1 | 3% | . | 1% | 0.7%
COc1ccc(-c2cc(C(=O)NCCN3CCOCC3)c3ccccc3n2)cc1 | 6% | 10 | -23% | 0.0%
O=C(CCC1CCCN(C(=O)c2ccsc2)C1)N1CCN(c2ccccn2)CC1 (configuration not stated) | 9% | 3 | -2% | 0.3%
C/C(=N\Nc1nc(C)cc(-c2ccccc2)n1)c1cccc(N)c1 | 9% | . | 12% | 2.8%
Cc1ccnc2nc(C(=O)Nc3nnc(-c4ccccc4)o3)nn12 | -3% | -7 | -35% | -0.3%
Cc1ccc(NC(=S)N2CCOCC2)c(C)c1 | -8% | 3 | -1% | -1.0%
CNCC(O)COc1cccc(OC)c1 (configuration not stated) | -2% | 5 | -2% | -2.3%
C=C(C)CCC1(C)NC(=O)N(c2ccccc2)N1 (configuration not stated) | 1% | 1 | 11% | 0.2%
COc1ccc(Nc2nc(=O)[nH]nc2C)cc1 | 7% | -6 | 0% | 2.8%
CCOC(=O)Nc1ccc(C(=O)NCC2CCCO2)cc1 (configuration not stated) | 9% | 1 | -8% | -6.6%
CC(=O)/C(=N\Nc1ccccc1)Sc1nncn1C | 0% | -2 | 0% | 5.3%
O=C(NCCC(c1ccccc1)c1ccccc1)c1ccc(Br)o1 | 12% | 2 | -1% | -4.0%
O=c1nc2s/c(=C\c3ccco3)c(=O)n2nc1Cc1ccccc1 | -10% | 1 | 0% | -1.2%
CCCCN(CC)C(=O)c1cc2c(=O)n3cccc(C)c3nc2s1 | -1% | . | -26%&-8% | 0.4%
CC(C)(C)C1CCC(=NNC(=S)Nc2cccnc2)CC1 (configuration not stated) | 13% | -15 | -10% | 0.3%
Cc1c(CCC(=O)N[C@@H](CC(C)C)C(=O)O)c(=O)oc2cc3oc4c(c3cc12)CCCC4 | -3% | . | 16% | 3.9%
COc1ccc(CNC(=O)c2nnn(Cc3ccc(OC)cc3)c2N)cc1 | 22% | -7 | -2% | -4.8%
CN1C(=O)c2cccc(NC(=O)CCc3ccccc3)c2C1=O | -7% | -10 | 1% | 0.0%
C=CCN1CCN(C(=O)c2cc3c(s2)CCCC3)CC1 | -10% | . | -34% | 1.3%
CCOc1cc(/C=C2\SC(=O)N(CC(=O)Nc3ccccc3F)C2=O)cc([N+](=O)[O-])c1O | 3% | -3 | -1% | -1.1%
COc1ccc(Nc2oc(-c3ccccc3)nc2C#N)cc1 | -1% | 0 | -72% | -3.3%
Fc1ccc(CNCc2ccco2)cc1 | -1% | . | -2% | 3.1%
CCc1ccc(NC(=O)c2cnc(SC)nc2C)cc1 | 13% | . | -19% | -1.5%
Cc1ccc(/C(C#N)=C\c2cn(C)c3ccccc23)cc1 | . | -1 | -21% | .
C[C@]12CCC(=O)C=C1[C@H](O)C[C@@H]1[C@@H]2[C@@H](O)C[C@@]2(C)[C@H]1CC[C@]2(O)C(=O)CO | -2% | -6 | -24% | -3.8%
O=C(NCCOc1ccccc1)C1CCC(=O)N(CCc2ccccn2)C1 (configuration not stated) | -21% | . | 0% | -1.8%
CCOc1cc(-c2noc(CCC(=O)NCCc3ccccc3)n2)ccc1OC | -13% | . | -4% | -0.3%
Cc1cccc(NC(=O)C2CCCN(S(=O)(=O)c3cccc4nonc34)C2)c1 (configuration not stated) | -3% | -3 | 1%&0% | 3.9%
COC(=O)c1ccc(C(C(=O)NCc2ccccc2)N(Cc2cccs2)C(=O)c2cnccn2)cc1 (configuration not stated) | 4% | -2 | 21% | -3.1%
COc1ccc(C(=O)NCCCNC(=O)c2cccnc2)cc1OC | 9% | . | -4% | -2.1%
CCCCNC(=O)C(=O)N/N=C/c1ccc(OCc2ccccc2)cc1 | -13% | -14 | 1% | 4.6%
O=C(O)c1nnn(-c2ccc([N+](=O)[O-])cc2)c1-c1ccccc1 | -2% | -2 | -4% | 3.9%
COc1ccc(NC(=O)c2cc3ccc(O)cc3o/c2=N\O)cc1 | ? | . | 7% | ?
NC(=O)c1cc([N+](=O)[O-])ccc1NCC1CCCCC1 | 2% | . | . | ?
CC1(C)CCN2CCC(C)(C)c3c(O)ccc1c32 | ? | . | ? | ?
COc1ccccc1NC(=O)c1ccc(-c2nn(C)c(=O)c3ccccc23)cc1 | -4% | -11 | -4% | -0.2%
